GLA inh pH 4.5 – qHTS Assay for Inhibitors of Human alpha-Galactosidase at pH 4.5; 230,000 tested, under 10 active; purified enzyme, 4-MU-alpha-Gal fluorescence, pH 4.5; AID 1467, 2008; activity change, negative = inhibition, % at 105 µM; inconclusive = small, poorly fitted or top-dose-only inhibition, or a rising curve; inactive = flat fitted curve, though single readings scatter; no compound was filed as active;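 also: 0% = full activity with enzyme and -100% = basal without enzyme; dose as in the result columns while the protocol names 77 µM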
miR-21 FLuc – qHTS Assay for Modulators of miRNAs and/orActivators of miR-21; HeLa miR-21 FLuc reporter, luciferase, 48 h; AID 2288, 2010; 340,000 tested, under 10 active; Potency, µM (highest dose often 38.3 µM), for the others: at the highest dose reporter change, positive = more light; active = well fitted rising curve with a large enough effect; inconclusive = small, poorly fitted or top-dose-only effect; inactive = no such curve, though single readings can be large or run the other way;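 also: % of control where 0% means no effect; miR-21 action dims this reporter so a rising signal means less miR-21 action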
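HeLa cells stably expressing CMV-driven firefly luciferase with a downstream miR-21 binding sequence, endogenously expressing miR-21, were treated with titrations (up to about 40uM final) for 48 hours at 37 degree Celsius. Luciferase luminescence was read after lysis.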
Rango release inh – qHTS Assay for Inhibitors of RanGTP induced Rango (Ran-regulated importin-beta cargo) - Importin beta complex dissociation. Snurportin-1 (Homo sapiens) + GTP-binding nuclear protein Ran (Homo sapiens) + Importin …. Biochemical FRET Rango-importin beta, RanGTP-induced dissociation. actives 0.071% (n = 340,000). Potency, µM (top dose mostly 46.1 µM), without a hit: top-dose activity change, negative = inhibition. AID 540253, 2011; active means falling FRET ratio curve, often poorly fitted, with flat reads before Ran was added; inconclusive means other falling curves, or compound fluorescence or quenching; inactive means flat or rising ratio curve;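 also: potency is read from the fitted curve at half-maximal effect; % of control where 0% means no effect; nearly all actives have a fitted effect of over 45% in size; -100% = wells without RanGTP and RCC1; the record marks most hits as doubtful in a second field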
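Recombinant Rango FRET biosensor (EYFP–snurportin 1 IBB–cerulean CFP10) at 0.1 uM premixed with 0.25 uM importin beta in PBS, 1 mM DTT, 0.02% Tween-20, 0.1% BSA. Compound added 5 min; RanGTP-RCC1 (0.6 uM Ran, 2 mM GTP, 0.2 uM RCC1) then triggers release, read at 45 min.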
Rango complex inh – qHTS Assay for Inhibitors of Rango (Ran-regulated importin-beta cargo) - Importin beta complex formation | Importin subunit beta-1 (Homo sapiens), Q14974 | Rango CFP/YFP FRET sensor + importin beta, 45 min | Potency, µM (doses to about 92.2 µM), for the others: at the top dose inhibition of complex formation | actives 0.031% (n = 340,000); active = rising FRET ratio curve, often small or poorly fitted; inconclusive = mostly compound fluorescence or quenching in the first reads; inactive = flat curves in all reads;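 also: potency is read from the fitted curve at half-maximal effect; 0% = DMSO wells and 100% = buffer wells lacking importin beta; nearly all actives have a fitted effect of over 15% in size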
Target sequence (Q14974 whole entry, looked up): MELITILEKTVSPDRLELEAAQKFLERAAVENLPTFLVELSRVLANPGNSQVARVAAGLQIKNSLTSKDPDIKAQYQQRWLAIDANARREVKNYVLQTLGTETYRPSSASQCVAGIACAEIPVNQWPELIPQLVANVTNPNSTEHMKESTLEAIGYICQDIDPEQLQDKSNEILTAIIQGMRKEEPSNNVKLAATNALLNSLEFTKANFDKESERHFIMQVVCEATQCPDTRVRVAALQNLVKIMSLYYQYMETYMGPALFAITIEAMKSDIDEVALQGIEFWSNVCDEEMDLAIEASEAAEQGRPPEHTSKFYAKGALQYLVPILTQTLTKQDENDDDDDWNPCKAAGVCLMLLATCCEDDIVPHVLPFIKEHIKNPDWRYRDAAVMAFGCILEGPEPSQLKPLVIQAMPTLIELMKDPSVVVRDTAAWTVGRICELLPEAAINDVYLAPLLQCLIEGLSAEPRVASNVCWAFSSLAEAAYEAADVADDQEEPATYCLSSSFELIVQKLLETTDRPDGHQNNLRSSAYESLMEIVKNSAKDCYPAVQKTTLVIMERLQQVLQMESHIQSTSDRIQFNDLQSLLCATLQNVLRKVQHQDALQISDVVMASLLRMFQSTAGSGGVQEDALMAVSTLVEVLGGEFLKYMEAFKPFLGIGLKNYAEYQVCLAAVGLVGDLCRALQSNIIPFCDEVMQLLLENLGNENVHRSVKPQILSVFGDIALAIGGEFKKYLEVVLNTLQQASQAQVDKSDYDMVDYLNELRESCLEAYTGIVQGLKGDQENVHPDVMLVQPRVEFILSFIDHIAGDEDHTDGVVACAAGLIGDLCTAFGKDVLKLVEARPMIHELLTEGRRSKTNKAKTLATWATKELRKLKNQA
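Inhibition scored from the CFP 486 nm/YFP 530 nm FRET ratio 45 min after adding 0.125 microM importin beta to 50 nM Rango biosensor preincubated 5 min with compound (room temperature, PBS with DTT, Tween-20, BSA). No-importin wells as positive control.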
An asterisk follows results filed as active; ? = inconclusive; / = not tested or not shown; & = joins results of further samples; ! = a repeat was not active; [ ] = dose if it differs, or a comment.

SMILES	GLA inh pH 4.5	miR-21 FLuc	Rango release inh	Rango complex inh
Cc1cc(NCc2ccccn2)n2c(nc3ccccc32)c1C#N	25	3%	?	0.1%
Cc1nnc(SCC(=O)NC(C)(C)C)n1CCc1ccccc1	7	-16%	1%	1.1%
Nc1ccc2c(c1)OC1(CCCC1)O2	-3	10%	?	?
C=CCC(C#N)(c1ccc(OC)c(OC)c1)c1cnccn1 (stereo not given)	/	/	-18%	4.0%
CC(=O)C1C(c2ccc(F)cc2)C2C(C)=NN=C2CC1(C)O (stereo not given)	2	-4%	2%	0.0%
CC1(C)CC(=O)C(C(O)c2ccc([N+](=O)[O-])cc2)C(C)(C)N1 (stereo not given)	/	-2%	-13%	5.5%
Cc1ccc(OCC(=O)OC(C)CN2CCCCC2)cc1 (stereo not given)	/	-2%	-23%	-3.0%
Cc1cccc(C(C)C)c1NC(=O)CN1C(=O)NC(Cc2ccccc2)C1=O (stereo not given)	/	/	-23%	-0.3%
COc1ccc(NC(=O)CCN2CCN(S(=O)(=O)c3ccc(OC)cc3)CC2)cc1	6[21.1 µM]	3%	-3%	-4.7%
CCc1ccc2[nH]cc(S(=O)(=O)c3ccc(C)c(C)c3)c(=O)c2c1	/	0%	5%	3.2%
CCOC(=O)C1=C(C)N(CCCCCC(=O)O)C(=O)NC1c1cccc([N+](=O)[O-])c1 (stereo not given)	/	-2%	-8%	0.6%
O=C(Nc1ccc(Cl)cc1)c1ccncc1	5	-38%	-26%	?
COC(=O)CNS(=O)(=O)c1ccc(C)cc1	9	0%	2%	-1.1%
Cc1ccc2sc(N(CCCN(C)C)C(=O)c3ccc(S(=O)(=O)N(C)C)cc3)nc2c1C	-16	-1%	7%	0.5%
CSCC[C@H](NC(=O)C(C)(C)Oc1ccc(Cl)cc1)c1nc2ccccc2[nH]1	5	0%	26%	1.6%
CC(=O)c1ccc(OCCn2c(SCC(=O)O)nc3ccccc32)cc1	/	0%	5%	2.7%
CN1CCN(c2nc3c(c(=O)n(C)c(=O)n3C)n2Cc2ccccc2F)CC1	/	2%	-5%	-0.1%
Cc1cc2c(c(=O)o1)C(C1C=CCCC1)C(C#N)=C(N)O2 (stereo not given)	0	-4%	4%	-5.9%
C=CCOc1ccc(C(=O)Nc2ncn[nH]2)cc1	/	-11%	-2%	-1.2%
OC(Cn1cccn1)c1ccccc1 (stereo not given)	0	-1%	8%	3.7%

One compound at a time (already shown):
`Cc1ccc(OCC(=O)OC(C)CN2CCCCC2)cc1` (stereo not given) as listed: GLA inh pH 4.5: /; miR-21 FLuc: -2%; Rango release inh: -23%; Rango complex inh: -3.0%
`CCc1ccc2[nH]cc(S(=O)(=O)c3ccc(C)c(C)c3)c(=O)c2c1` as listed: GLA inh pH 4.5: /; miR-21 FLuc: 0%; Rango release inh: 5%; Rango complex inh: 3.2%
`CCOC(=O)C1=C(C)N(CCCCCC(=O)O)C(=O)NC1c1cccc([N+](=O)[O-])c1` (stereo not given) as listed: GLA inh pH 4.5: /; miR-21 FLuc: -2%; Rango release inh: -8%; Rango complex inh: 0.6%

The listing continues.
SMILES	GLA inh pH 4.5	miR-21 FLuc	Rango release inh	Rango complex inh
Cc1ccc(N2CC(C(=O)N3CCCCCC3)CC2=O)cc1 (stereo not given)	/	-7%	-4%	2.6%
CNc1nc(NC#N)nc(SC)n1	2	-6%	10%	-0.4%
COC(=O)CNC(=O)C1CCCN1C(=O)OC(C)(C)C (stereo not given)	9	-8%	3%	-4.9%
COc1ccc(C(C)NC(=O)CCc2ccccc2)cc1 (stereo not given)	/	2%	-5%	3.1%
Cc1cccn2cc(-c3ccccc3)nc12	-8	-19%	6%	0.7%
Cc1ccc(N2C(=O)C3C4CC(=O)C(c5ccccc54)C3C2=O)cc1C (stereo not given)	-3	1%	15%	-3.5%
Cc1ccc(C)n1-c1ccc(-c2nnc3n2CCCCC3)s1	1	10%	11%	?
COC(=O)c1cc(C(=O)CSc2nc(C)cc(C)n2)ccc1O	-2	-3%	-7%	-0.3%
CN(C)/C=C1/OC(=O)C(C#N)=C1c1ccc(Cl)cc1	/	-3%	16%	-2.3%
N#C/C(=C\c1c(N2CCCCC2)nc2ccccn2c1=O)C(=O)NC1CCS(=O)(=O)C1 (stereo not given)	14	-2%	?	?
O=C(NCCNCc1cccs1)c1ccccc1F	8	2%	-14%	3.3%
CCCCCCCCCCCCCCCC[n+]1cccc(C(=O)N(CC)CC)c1	3	?	?	73µM*!
Cn1c(=O)c(=O)n(C)c2cc(N3CCCC3)c(NS(=O)(=O)c3ccc(F)cc3)cc21	/	-1%	-3%	-9.0%
COc1ccc(N2CCN(C(=O)Cc3ccc(C)cc3)CC2)cc1	/	-1%	0%	-3.9%
Cc1ccc(-n2ncc3c(N4CCC(C(N)=O)CC4)ncnc32)c(C)c1	-4	-36%	1%	2.4%
CCN(C(=O)CSc1ncccn1)c1c(N)n(Cc2ccccc2)c(=O)[nH]c1=O	/	/	-7%	0.4%
COc1cc(Br)c(-c2sc(Nc3ccccc3)n[n+]2-c2ccccc2)cc1OC	/	4%	10%	0.9%
O=C(CNc1ccccc1)N/N=C/c1c(O)ccc2ccccc12	/	23%	?	?
O=C(COc1ccccc1F)N1CCc2ccccc2C1	-2	-2%	-6%	-4.4%
Cc1ccc(Cl)c2c1NC(=O)C2=O	/	/	1%	0.6%
CCN(CC)C(=O)c1ccc2c(c1)nnn2C	1	-2%	-6%	0.3%
Cc1c(CN2CCN(c3cccc(C(F)(F)F)c3)CC2)c(=O)n(-c2ccccc2)n1C	-3	2%	6%	0.3%
Cc1nn(-c2cccc(Cl)c2)c2c1C(c1cccnc1)C(C#N)=C(N)O2 (stereo not given)	0	0%	27%	-1.3%
COc1ccccc1NC(=O)c1sc2nc3n(c(=O)c2c1C)CCC3	/	-3%	9%	-6.0%
CN(C)S(=O)(=O)c1ccc(C(=O)NNC(=O)C23CC4CC(CC(C4)C2)C3)cc1	/	/	18%	1.0%
CCOC(=O)c1c(NC(=O)COc2ccccc2)sc2c1CC(C)(C)NC2(C)C	-4	-2%	?	-2.3%
Cc1cccc(OCC(=O)NNC(=O)c2cc3ccccc3oc2=O)c1	-10	-3%	-9%	-1.0%
CCOc1ccccc1C(=O)Nc1cc2c(cc1N1CCCC1)n(CC)c(=O)n2CC	/	20%	2%	-0.1%
Cc1cc2nccc(-c3ccc(OCCCF)cc3)n2n1	/	-17%	-11%	?
CC(C)C(=O)Nc1c2c(nn1-c1ccc(F)cc1)CSC2	/	-2%	-5%	0.8%

Printed as active in Rango complex inh, of those listed so far:
SMILES	GLA inh pH 4.5	miR-21 FLuc	Rango release inh	Rango complex inh
CCCCCCCCCCCCCCCC[n+]1cccc(C(=O)N(CC)CC)c1	3	?	?	73µM*!

New compounds follow.
SMILES	GLA inh pH 4.5	miR-21 FLuc	Rango release inh	Rango complex inh
CCOC(=O)[C@H]1[C@H]2COc3ccc(Cl)cc3[C@@H]2N2C(=O)c3ccc(C)cc3NC(=O)[C@@]12C	/	/	?	0.3%
CCCCN(CCCNC(=O)c1c(C)cc(=O)oc1C)c1ccccc1	0	-11%	17%	-1.7%
O=C(COC(=O)C1CCC(=O)N1)Nc1ccccc1OC(F)F (stereo not given)	/	/	-12%	6.2%
S=C(NC1CCCCC1)N1CCN(C2CCCCC2)CC1	3	-2%	23%	-0.1%
Nc1c(-c2ccc(Cl)cc2)cnn1-c1ccccc1	/	-67%	0%	-0.7%
Cc1ccc(S(=O)(=O)NCC2CCC(C(=O)NCc3cccnc3)CC2)cc1 (stereo not given)	5	-3%	?	-2.9%
N#Cc1c(N)nc2c(c1-c1ccc(F)cc1)CCC2	23	-1%	?	?
CCOCN(C(=O)Cn1c(CO)nc2ccccc21)c1c(C)cccc1CC	5	-15%	14%	0.3%
O=C(NC1(C(=O)NC2CCCCC2)CCCCC1)c1ccc2c(c1)OCO2	7	-1%	3%	2.6%
O=S(=O)(Nc1ncccn1)c1ccc(-n2cnnn2)cc1	9	5%	0%	-0.5%
Cc1nn(-c2ccccc2)c(Cl)c1/C=N/NC(=O)c1cccnc1	2	-30%	3%	-0.2%
CCOC(=O)c1c(C)cc(=O)oc1C	3	-2%	-4%	-0.4%
COC(=O)c1ccc([N+](=O)[O-])cc1N1C(=O)C2C3CCC(C3)C2C1=O (stereo not given)	5	1%	4%	-0.2%
CNc1ccccc(C(=O)/C=C/c2ccccc2OC)c1=O	-3	-2%	?	?
CC1Cc2cccc3ccc(=O)n(c23)C1 (stereo not given)	/	/	0%	0.1%
O=C(Nc1ccc(F)cc1)Nn1cnnc1	/	-2%	0%	-0.4%
CC(C)Nc1nc2n(c(=O)n1)CCN2C(C)C	0	-1%	11%	-0.8%
CCOC(=O)CCNC(=O)N1CCCC(C(=O)c2cc(C)c(OC)c(C)c2)C1 (stereo not given)	/	10%	-3%	-3.1%
CCSc1nc(O)cc(=O)[nH]1	11	1%	-30%	0.1%
COc1cc2c(cc1OC)C(C)N(C(C)=O)CC2 (stereo not given)	4	-3%	11%	-1.2%
COc1ccc(C(CNC(=O)C2CC2)N(C)C)cc1 (stereo not given)	/	-18%	24%	-1.6%
COc1ccc(Cl)cc1N1C(=O)CN(Cc2cc(OC)c(OC)c(OC)c2)C1=S	/	-5%	6%	-0.5%
C[C@@]12CC(=O)NC1N(C(=O)c1ccccc1)C(c1ccccc1OC(=O)c1ccccc1)C2 (stereo not given in full)	-5	-5%	-7%	-2.9%
COc1ccc(CN2CCNC(=O)C2CC(=O)NCCCn2cccn2)cc1C (stereo not given)	/	-3%	-10%	2.6%
Cc1cc(C)cc(NC(=S)N2C3CCCC2CC(NC(=O)C2CC2)C3)c1 (stereo not given)	/	0%	13%	-0.1%
O=C(C1CC1)N1CCN(C(c2ccccc2)c2ccccc2)CC1	8	2%	1%	-0.1%
CCOC(=O)N1CCN(C(=O)CN(c2cccc(C(F)(F)F)c2)S(=O)(=O)c2ccccc2)CC1	-4	-6%	-9%	-0.1%
CC(C)Oc1ccc(OCCCN2CCCCCC2)cc1	0	-3%	0%	0.1%
CCC(=O)NCc1c(C)c(C)n(Cc2ccccc2)c1-n1cccc1	-6	0%	0%	-0.9%
Cc1ccc(NC(=O)COc2coc(CN3CCc4ccccc4C3)cc2=O)cc1Cl	/	/	7%	-1.7%
COc1ccc(NC(=O)CN(C)C(=O)c2cc(-c3ccc(Cl)cc3)nc3ccccc23)cc1	/	/	-8%	-4.4%
Cc1nn(Cc2ccccc2)c(C)c1C(=O)NCCN1C(=O)S/C(=C\c2ccc(F)cc2)C1=O	7	0%	1%	3.3%
COc1cc(=O)[nH]c(SC(C)C(=O)Nc2ccc3ccccc3c2)n1 (stereo not given)	/	7%	-7%	-0.1%
O=C(O)c1ccc(N(c2ccccc2)c2ccccc2)cc1	-11	-3%	-5%	-3.2%
CCn1c(O)c(N=NC(=O)CNC(=O)/C=C/c2ccco2)c2ccccc21	2	-4%	11%	-1.2%
Cc1cc(Cl)c(S(=O)(=O)N2CCCC2)cc1OCC(N)=O	7	-3%	7%	1.1%
Cc1cc(NC(=O)COc2nnc(-c3ccccc3)c3ccccc23)no1	3	1%	12%	-0.6%
O=C1CCc2ccc(OCCCCN3CCN(c4cccc(Cl)c4Cl)CC3)cc2N1	-12&-23	2%	1%	-0.9%
CC(C)OC(=O)CN1CCN(S(=O)(=O)c2cc(Cl)ccc2Cl)CC1	-8	-4%	0%	-1.2%
COc1ccc(N(CC(=O)NN=C2CCN(C)CC2)S(=O)(=O)c2ccc(NC(C)=O)cc2)cc1	/	-3%	-12%	5.0%
Cc1cccc(S(=O)(=O)Nc2nc3ccccc3nc2Nc2cccc(C(=O)O)c2)c1	/	-5%	-13%	2.0%
Cc1ccc(-n2nnnc2SCC(=O)NCC2CCCO2)cc1C (stereo not given)	/	/	0%	2.6%

A portion of the library. The share of hits here may be higher or lower than overall.
